VDR inhibitor: blocks the human vitamin D receptor. Potency, µM, without a hit: max response, negative = inhibition, hits mostly inhibitors. AID 504847. 400,000 tested, 0.93% active. P11473. VDR-SRC2-3 peptide fluorescence polarization, 2 h; active = well fitted inhibition curve with a large enough effect; inconclusive = small, poorly fitted or top-dose-only effect, or another doubt; inactive = no such curve, though single readings can be large or run the other way; also: series mostly up to about 120 µM
Target sequence (P11473 whole entry, looked up): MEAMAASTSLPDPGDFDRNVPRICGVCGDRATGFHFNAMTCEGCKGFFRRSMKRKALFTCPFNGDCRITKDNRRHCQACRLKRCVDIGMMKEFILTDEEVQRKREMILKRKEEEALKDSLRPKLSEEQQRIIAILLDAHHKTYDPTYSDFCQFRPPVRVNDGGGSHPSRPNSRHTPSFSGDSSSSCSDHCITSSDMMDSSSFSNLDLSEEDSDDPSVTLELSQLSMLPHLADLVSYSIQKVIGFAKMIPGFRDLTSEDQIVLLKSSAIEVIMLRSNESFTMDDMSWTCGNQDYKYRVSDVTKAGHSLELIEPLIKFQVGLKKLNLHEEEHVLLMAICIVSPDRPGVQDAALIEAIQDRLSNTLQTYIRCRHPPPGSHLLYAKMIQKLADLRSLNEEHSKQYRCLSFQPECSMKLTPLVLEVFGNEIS
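Reagent solutions, kept cold and dark, are dispensed first; compounds are then pinned in at 23 nl, plates briefly spun, and incubated 2 h at ambient temperature. Inhibition of VDR–SRC2-3 peptide binding is read by fluorescence polarization.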
Starred values were filed as active, the others as inactive; ? = inconclusive; & = joins results of further samples; ! = repeats disagree; [ ] = another dose, or the depositor's remark. % is scaled to controls: 0 for no effect and ±100 for the full control effect; potency is read from the fitted curve at half-maximal effect. This is a subset. The share of hits here may be higher or lower than overall.

SMILES	VDR inhibitor
Oc1ccccc1C1NCc2ccccc2-n2cccc21 (stereo not given)	5.5%
S=P(Nn1cnnc1)(c1ccc(Br)cc1)c1ccc(Br)cc1	?
CC(C)C(=O)Nc1ccc(S(=O)(=O)N2CC3CC(C2)c2cccc(=O)n2C3)cc1 (stereo not given)	-10.6%
CCOP(=S)(OCC)Oc1cc(C)oc(=O)c1	79.4µM*
CC(=NCCCO)c1c(O)n(Cc2ccccc2)c(=O)[nH]c1=O	4.4%
C[N+]1(CC2COC(c3ccco3)O2)CCCCC1 (stereo not given)	0.4%
O[C@@H]1[C@H](O)[C@H]2[C@@H](O)CCN2C[C@@H]1O	25.6%
CCCC(C)C(=O)NC1CCSC1=O (stereo not given)	-2.0%
CSc1ncc(/C=C2/C(=O)NC(=O)N(C)C2=O)cn1	?
COc1cccc(C2SCC(=O)Nc3c2c(C)nn3-c2ccc(C)c(Cl)c2)c1OC (stereo not given)	-0.6%

Six entries from above, bar-delimited:
SMILES | VDR inhibitor
O[C@@H]1[C@H](O)[C@H]2[C@@H](O)CCN2C[C@@H]1O | 25.6%
S=P(Nn1cnnc1)(c1ccc(Br)cc1)c1ccc(Br)cc1 | ?
CC(C)C(=O)Nc1ccc(S(=O)(=O)N2CC3CC(C2)c2cccc(=O)n2C3)cc1 (stereo not given) | -10.6%
CCCC(C)C(=O)NC1CCSC1=O (stereo not given) | -2.0%
Oc1ccccc1C1NCc2ccccc2-n2cccc21 (stereo not given) | 5.5%
C[N+]1(CC2COC(c3ccco3)O2)CCCCC1 (stereo not given) | 0.4%

(list continues)
SMILES	VDR inhibitor
C[C@]12CC[C@H]3[C@@H](CCC4=CC(=O)CC[C@@H]43)[C@@H]1CC[C@@H]2O	-17.3%&-5.0%
CC1NCCC2(O)CCCCC12 (stereo not given)	-29.1%
Nc1c(C(=O)Nc2ccc(F)c(Cl)c2)sc2nc3c(cc12)N1CCC3CC1	8.0%
C=CCn1c(O)c(/C=N/NC(=O)c2ccncc2)c(=O)[nH]c1=O	2.4%
Cc1c(C)c2cc(Cl)c(OCC(=O)N3C[C@H]4C[C@@H](C3)c3cccc(=O)n3C4)cc2oc1=O	-10.3%
Cc1cccc(Cn2cccc(C(=O)Nc3ccc(F)cc3F)c2=O)c1	9.6%
CCCN1C[C@H](C)N([C@H](c2ccc(C(=O)N(CC)CC)cc2)c2cccc(OC)c2)C[C@H]1C	?
COc1cccc(OC)c1C(=O)NC(=S)N1C[C@H]2C[C@H](C1)c1cccc(=O)n1C2	-4.7%
COc1ccccc1-n1c(-c2ccoc2)nc2ccccc2c1=O	15.6%
CCOCCCNC(=O)CN1C2CCC1CC(O)(c1ccc(OC)cc1)C2 (stereo not given)	12.9%
O=CC(Cl)P(=O)(N1CCCCC1)N1CCCCC1 (stereo not given)	-5.8%
Clc1ccccc1C(c1ccccc1)(c1ccccc1)n1cccn1	-5.4%
N#Cc1c(Cl)nc(Cl)c2c1CCN(Cc1ccccc1)C2	?
CCCCn1c(O)c(/C=N/N2CCOCC2)c(=O)[nH]c1=S	-11.3%
Cn1c(O)c(C(=N)COc2ccccc2)c(=O)n(C)c1=O	17.8%
COC(=O)C1=C(c2ccc(C(C)=O)cc2)C[C@@H]2CC[C@H]1N2C(=O)NCCOc1ccccc1Cl	7.1%
NCCc1c[nH]c2ccc(C(N)=O)cc12	1.6%&-9.3%
Cc1cccc(NC2=NCCCS2)c1	4.3%
CCC(C)C(=O)OC1C2CC3=C4CC(=O)OC(c5ccoc5)[C@]4(C)CCC3[C@@](C)(C2=O)C(CC(=O)OC)C1(C)C (stereo not given in full)	39.8µM*
CC(C)C(=O)Nc1ccc(N2CCN(C)CC2)c(F)c1	-15.8%

Overlap with the part before: 2 compounds; new compounds follow.
SMILES	VDR inhibitor
CCC(C)C(=O)OC1C2CC3=C4CC(=O)OC(c5ccoc5)[C@]4(C)CCC3[C@@](C)(C2=O)C(CC(=O)OC)C1(C)C (stereo not given in full)	39.8µM*
CC(C)C(=O)Nc1ccc(N2CCN(C)CC2)c(F)c1	-15.8%
Cc1ccc(-n2c(/C=C\c3ccc(F)cc3)nc3ccccc3c2=O)cc1Cl	14.2%
O=c1[nH]c(=S)n(Cc2ccc(F)cc2)c(O)c1C=NCCCn1ccnc1	-12.3%
O=C(Nc1ccc(Cl)cc1)OC1CN2CCC1CC2 (stereo not given)	-11.9%
O=c1[nH]c(=O)n(C2CCCCCC2)c(O)c1C=NCc1cccnc1	17.2%
O=P(O)(Oc1ccccc1)OC(c1ccccc1)C(F)(F)F (stereo not given)	11.2%
CCc1n[nH]c(CCN)n1	0.4%
COc1ccccc1CCNC1CCCCCC1	-17.1%
CC(C)NC(C)Cc1ccc(I)cc1 (stereo not given)	-1.3%&-1.0%&-2.7%
CC(C)(C)C(O)C(Oc1ccc(Cl)cc1)n1cncn1 (stereo not given)	-5.0%
COC(=O)c1ccc(NC(=O)NC(=O)Oc2ccccc2)cc1	?
CN1CC(C(=O)c2ccc(Cl)cc2)C(c2ccc(Cl)cc2Cl)C1 (stereo not given)	-8.9%
Cc1ccccc1NC(=O)Cc1nc(COC(=O)Cc2ccccc2)cs1	22.4%
COc1cc2c(cc1OC)C1[C@H]3C(=CC[C@H]1OC2O)CCN3C (stereo not given in full)	-19.6%
O=C1C=CC(=O)c2c1ccc1c2ccc2ccccc21	3.16µM*
CN(C)c1ccc(C(=O)N/N=C/C23CC[C@@H](O)CC2(O)CC[C@@H]2[C@@H]3CCC3(C)C(C4=CC(=O)OC4)CCC23O)cc1 (stereo not given in full)	0.9%
CC1=C[C@@H]2c3cccc4[nH]cc(c34)C[C@H]2N(C)C1	50.1µM*!
C#CCOCCOCCOCCNc1nc(N2CCN(C(=O)CCCCCCCCCCNC(=O)[C@H]([C@@H](C)CC)n3cc(CCCCN=C(N)N)nn3)CC2)nc(N2CCN(C(=O)CCCCCCCCCCNC(=O)[C@H](CO)n3cc(CCCCCN)nn3)CC2)n1	46.4%[activator]
CCSc1nnc(NC(=O)c2cccn(Cc3ccccc3Cl)c2=O)s1	-6.4%
Cc1ccc2c(c1)cc1c(=O)n(CC(=O)N3CCC4(CC3)OCCO4)nc(C)n12	7.8%
CC(C#N)CCC#N (stereo not given)	-0.5%
c1ccc(-c2nnc(C3CC(c4cccnc4)=NO3)o2)cc1 (stereo not given)	-14.1%
Cc1ccccc1NC1(C#N)CCCCC1	-13.7%

Part of the list above in order of heavy-atom count, falling:
SMILES	VDR inhibitor
C#CCOCCOCCOCCNc1nc(N2CCN(C(=O)CCCCCCCCCCNC(=O)[C@H]([C@@H](C)CC)n3cc(CCCCN=C(N)N)nn3)CC2)nc(N2CCN(C(=O)CCCCCCCCCCNC(=O)[C@H](CO)n3cc(CCCCCN)nn3)CC2)n1	46.4%[activator]
Cc1ccc2c(c1)cc1c(=O)n(CC(=O)N3CCC4(CC3)OCCO4)nc(C)n12	7.8%
c1ccc(-c2nnc(C3CC(c4cccnc4)=NO3)o2)cc1 (stereo not given)	-14.1%
